High-throughput results as filed in PubChem BioAssay.
AID504770 = growth inhibitors of E. coli YBA685 in a screen for V. cholerae RctB (chromosome II replication) inhibitors. z-score (test concentration not listed). E. coli YBA685 rctB-dependent plasmid, OD600 growth, 3 h; active compounds read low. AID 504770. 130,000 tested, 0.27% active;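 active means z-score under -2 on both plates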;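 further: wells of about 30 µL received 100 nL stock; score is relative to mean and SD of the test wells; the first replicate is given; strong numbers were not always called active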
CapD inh = inhibitors of Bacillus anthracis CapD enzyme; z-score (test concentration not listed); 140,000 tested, 0.23% active; purified CapD enzyme, fluorescence intensity read-out; active compounds read low; some hits fall short of the stated cut;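 active means z-score under -4 in either of two replicates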;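 further: stock transfer was 100 nL into about 40 µL; score is relative to mean and spread of the plate; one replicate is shown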
* marks the source's active call; other numbers are inactive results; . = not tested or not shown.

Start of the data: the first 14 entries as a preview:
SMILES | AID504770 | CapD inh
Cc1cc(C(=O)COc2ccc3oc4ccccc4c3c2)c(C)n1CC1CCCO1 (centres undefined) | -0.55 | .
CCN1C(=O)C(C)S/C1=C(/C#N)C(=O)NCc1ccco1 (centres undefined) | 1.6 | .
O=c1/c(=C\c2ccc(F)cc2)sc2nc3cc(Br)cnc3n12 | . | 0.96
O=C(CN1c2cccc3cccc(c23)S1(=O)=O)N1CCCCC1 | 1.1 | 0.98
COc1cccc(CN(Cc2ccco2)C(=O)Cc2nc(-c3ccccc3)sc2C)c1 | . | 7.8
CC(C)(C)OC(=O)N1CCC(C(=O)N2CCCCC2)CC1 | 0.1 | -0.27
O=C(NCCCn1ccnc1)c1cc2nc(-c3ccc4c(c3)OCO4)cc(C(F)(F)F)n2n1 | . | 0.47
Cc1nn(C(C)C(=O)NCCCN2CC(C)CC(C)C2)c(=O)c2c1sc1ccccc12 (centres undefined) | 0.8 | 3.3
COc1ccccc1NC(=S)Nc1ccc(OC)c(OC)c1 | . | 0.11
CN1C(=O)c2ccccc2C(C(=O)O)C1c1c[nH]c2ccccc12 (centres undefined) | -0.65 | -0.4
CC1(C)CC(=O)c2cc(-c3ccc(Br)cc3)n(CC(=O)OCC(=O)c3ccc(Br)cc3)c2C1 | . | -0.25
O=C(Nc1ccc(CSc2ccc(F)cc2)cc1)c1ccc(F)cc1F | . | -0.52
Cc1ccc(-c2cc(C(=O)Nc3cccc(C#N)c3)c3ccccc3n2)o1 | 1.4 | .
CCC(=O)NCC1COc2ccccc2O1 (centres undefined) | 0.3 | .

This part in full, previewed entries included:
SMILES | AID504770 | CapD inh
Cc1cc(C(=O)COc2ccc3oc4ccccc4c3c2)c(C)n1CC1CCCO1 (centres undefined) | -0.55 | .
CCN1C(=O)C(C)S/C1=C(/C#N)C(=O)NCc1ccco1 (centres undefined) | 1.6 | .
O=c1/c(=C\c2ccc(F)cc2)sc2nc3cc(Br)cnc3n12 | . | 0.96
O=C(CN1c2cccc3cccc(c23)S1(=O)=O)N1CCCCC1 | 1.1 | 0.98
COc1cccc(CN(Cc2ccco2)C(=O)Cc2nc(-c3ccccc3)sc2C)c1 | . | 7.8
CC(C)(C)OC(=O)N1CCC(C(=O)N2CCCCC2)CC1 | 0.1 | -0.27
O=C(NCCCn1ccnc1)c1cc2nc(-c3ccc4c(c3)OCO4)cc(C(F)(F)F)n2n1 | . | 0.47
Cc1nn(C(C)C(=O)NCCCN2CC(C)CC(C)C2)c(=O)c2c1sc1ccccc12 (centres undefined) | 0.8 | 3.3
COc1ccccc1NC(=S)Nc1ccc(OC)c(OC)c1 | . | 0.11
CN1C(=O)c2ccccc2C(C(=O)O)C1c1c[nH]c2ccccc12 (centres undefined) | -0.65 | -0.4
CC1(C)CC(=O)c2cc(-c3ccc(Br)cc3)n(CC(=O)OCC(=O)c3ccc(Br)cc3)c2C1 | . | -0.25
O=C(Nc1ccc(CSc2ccc(F)cc2)cc1)c1ccc(F)cc1F | . | -0.52
Cc1ccc(-c2cc(C(=O)Nc3cccc(C#N)c3)c3ccccc3n2)o1 | 1.4 | .
CCC(=O)NCC1COc2ccccc2O1 (centres undefined) | 0.3 | .
Cc1cc(NC(=O)CSc2nnc(COc3ccc(Cl)cc3C)n2C2CCCCC2)no1 | 1.5 | .
COC(=O)CC1=NN(c2nc(C)cc(C)n2)C(=O)C1 | 2 | -1.3
CC1(C)CC(=O)C(C(N)=NC(=O)c2ccccc2)=C(O)C1 | -0.5 | 1.5
N#CC1(C#N)C(c2ccccc2)C(C(=O)Oc2cccc(Cl)c2)N2c3ccccc3C=CC21 (centres undefined) | . | 0.62
COc1ccc(C2Nc3ccccc3-c3cc(C)nn32)cc1 (centres undefined) | -0.7 | 22
Cc1nc(-c2ccc(C(F)(F)F)cc2)sc1C(=O)NNC(=O)OCc1nc(-c2ccc(Cl)cc2)cs1 | . | 29
N#C/C(=N\Nc1ccc(F)cc1)C(N)=S | -0.8 | -2.9
Cc1ccc(S(=O)(=O)N2CCC(C(=O)N=Nc3c(O)[nH]c4ccccc34)CC2)cc1 | -0.15 | -0.27
O=C(NC(NC1=NCCS1)(C(F)(F)F)C(F)(F)F)c1ccco1 | -0.45 | 0.71
Cc1cc(C)c(C2=NON3N(C(=O)c4ccccc4)c4ccccc4N23)c(C)c1 | . | -0.48
COC(=O)C1=C(C(=O)OC)SC(=C2C(=S)C(C)(C)N(C(=O)C3CC3)c3ccccc32)S1 | . | -0.62
Cc1cc(C)c(CCOC(=O)NCc2ccccc2Br)c(C)c1 | . | -0.33
Cn1ccsc1=NC(=O)CCCc1c[nH]c2ccccc12 | -0.5 | .
O=C(O)/C=C/c1cc(Br)ccc1OC(F)F | -0.05 | .
Cc1ccc(NC(=O)CSc2nc3ccccc3c(=O)n2CCC(=O)NC2CCCCC2)cc1 | . | -0.3
O=C(CS(=O)(=O)c1c[nH]c2ccccc12)N1CCN(c2ccccc2)CC1 | -0.9 | -0.2
COc1ccc(S(=O)(=O)Nc2cccc(-c3nnco3)c2)cc1OC | 0.35 | -0.13
O=C1O[C@H](C(O)CO)[C@H](O)C1O (some centres undefined) | . | 1.8
COc1ccccc1CC(=O)Nc1ccc2ccccc2n1 | -0.95 | 1.4
COC(=O)c1c(C)[nH]c(C(=O)C(C)OC(=O)c2cc(S(=O)(=O)N3CCOCC3)ccc2F)c1C (centres undefined) | 0.3 | .
CCn1c(=O)c2cc(C(=O)N(CCC(C)C)Cc3ccco3)sc2c2ccccc21 | 0.25 | 11
Cc1nn(-c2ccccc2)c(C)c1P(=O)(c1ccccc1)N(C)C (centres undefined) | -0.3 | .
O=C(CC12CC3CC(CC(C3)C1)C2)OCC(O)CN1CCOCC1 (centres undefined) | -0.55 | .
CCOC(=O)c1ccc(-n2c(=S)[nH]c3ccccc32)cc1 | 0.15 | 84
CCNC(=O)Nc1ccccc1C(=O)OC | 0.5 | 72
NNC(=O)CCN1CCN(Cc2ccccc2)CC1 | -1 | .
Cc1nc(C(=O)Nc2cccc(Cl)c2)nn1-c1cc(Cl)cc(Cl)c1 | . | 0.49
CCOC(=O)c1c(CSc2nc(C)c(C)c(C)c2C#N)n(C)c2cc(Br)c(OC(C)=O)cc12 | . | -0.26
CS(=O)(=O)c1ccc(-n2cc(-c3ccnc4ccccc34)cn2)cc1 | . | 22
c1coc(CNCC2CCCO2)c1 (centres undefined) | 1.4 | -0.83
CCn1cc(C(=O)N2CCCc3ccccc32)c(=O)c2ccc(C)nc21 | 0.05 | .
O=C(O)c1cc(C2CC2)on1 | 0.1 | .
O=C(CC(c1ccc(F)cc1)c1ccco1)Nc1nccs1 (centres undefined) | -1.8 | 0.45
COC(=O)CNCC(=O)OC | . | 0.44
CCOCCOC(=O)C1=C(C)NC2=C(C(=O)CC(c3ccc(Cl)cc3)C2)C1c1cc(Cl)c(O)c(OC)c1 (centres undefined) | . | 13
O=C(N/N=C/c1cccc(OCc2ccccc2)c1)c1nc(-c2ccccc2)no1 | . | -0.42
N#Cc1c(N)n(-c2ccc(S(N)(=O)=O)cc2)c2nc3ccccc3nc12 | 2.2 | .
COc1ccc(C2OC(COc3ccccc3C)=NN2C(C)=O)cc1OC(C)=O (centres undefined) | 1.4 | -1.5
COc1ccc(-c2noc(CNC(=O)NC3CCCCC3)n2)cc1 | -0.75 | 0.18
CCOC(=O)C(C)Sc1ncnc2sc3c(c12)CCCC3 (centres undefined) | 1.1 | -0.23
Cc1ccc(C(=O)OCCSc2ccc(C(F)(F)F)cn2)cc1 | 0.6 | 0.36
CSc1nc2n(n1)C(=O)CC(C)(C)N2 | 0.3 | 0.005
CN(CCCC(=O)O)S(=O)(=O)c1ccc2c(c1)Cc1cc(S(=O)(=O)N(C)CCCC(=O)O)ccc1-2 | . | -0.85
c1ccc(CSC2=NCCN2)cc1 | . | 0.52
COc1ccc(CN(C)C(=O)c2cc(C)on2)c(OC)c1 | -0.85 | .
CC1CC(=O)N(CC(=O)N2CCCCC2)c2ccccc2S1 (centres undefined) | 1.9 | .

Next structures
SMILES | AID504770 | CapD inh
CC12CCC(O)CC1=CCC1C2CCC2(C)/C(=N/N)CCC12 (centres undefined) | -0.25 | .
COc1ccccc1NC(=O)c1ccccc1 | 0.05 | 0.14
CCc1ccc(-c2nc(C(N)=O)c3[nH]c(=O)n(-c4ccccc4)c3n2)cc1 | -0.1 | 26
O=C(/C=C\c1ccco1)Nc1ccc(N2CCN(C(=O)c3ccccc3)CC2)cc1 | -0.6 | -1.8
CN(Cc1ccccc1)C(=O)Nc1noc2c1COc1ccccc1-2 | -0.05 | 0.81
CC1CCC(C(C)C)C(OCC(O)CNC(C)C)C1 (centres undefined) | -0.1 | 0.64
CS(=O)(=O)/C(C#N)=C/c1cccn1S(=O)(=O)c1ccccc1 | -1.6 | -1.9
Cc1oc(C)c2c(=O)ccc3c(c12)OC(N)=C(C#N)C3c1ccc(Br)cc1 (centres undefined) | 0.95 | 0.41
O=C(C1=C2Sc3ccccc3N2CC(C(=O)c2ccccc2)C1)c1ccccc1 (centres undefined) | -0.2 | 0.53
COc1ccccc1NC(=O)N1CCc2cc(F)ccc21 | . | 0.17
CC(=O)c1ccc(Sc2ccc(Cl)cc2)c([N+](=O)[O-])c1 | . | -0.68
CCNC(=S)Nc1sc2c(c1C#N)CCC(C)C2 (centres undefined) | -0.7 | -0.68
CCCSc1nc2cc(C)c(C)cc2n1CC(C)O (centres undefined) | -0.7 | -0.52
Cc1ccc(NC(=S)NCCCO)c(C)c1 | -0.2 | 0.15
Cc1c(NC(=O)C23CC4CC(C)(CC(C)(C4)C2)C3)c(=O)n(-c2ccccc2)n1C | -0.25 | .
CCSc1nnc(NC(=O)c2cccc(C(=O)Nc3nnc(SCC)s3)n2)s1 | . | -0.46
COc1ccc(CCNC(=O)OCCc2ccc(C)cc2)cc1 | . | 0.12
COc1ccccc1-c1cc(=O)n(CC(=O)N2CCC(C(N)=O)CC2)c2c1CCCC2 | -0.35 | 1.1
O=C(CSc1nc2ccccc2[nH]1)c1nnc(-c2ccc(Cl)cc2)o1 | 0.1 | .
Cn1c2c(c(=O)n(C)c1=O)C(c1cc([N+](=O)[O-])ccc1O)C1=C(N2)c2ccccc2C1=O (centres undefined) | . | 0.8
Cc1cc(C(=O)NCc2cc(F)cc3c2OCOC3)nn1C | -0.85 | 0.59
O=S(=O)(c1ccc(Oc2ncnc3sccc23)c(Cl)c1)N1CCOCC1 | -0.75 | .
CCOC(=O)c1c(C)oc2c1c(C=NC1CCS(=O)(=O)C1)c(O)c1ccccc12 (centres undefined) | -0.05 | .
Clc1ccc(N2CCN(C3=Cc4ccccc4CC3)CC2)cc1Cl | 1.4 | -1.4
COc1ccc(C(=O)N/N=C/c2ccccc2C(=O)O)cc1OC | . | -0.98
N=c1scc(-c2ccccc2)n1-c1ccc(Cl)cc1Cl | -0.65 | -0.63
Cc1nc(N2CCCC2)[nH]c(=O)c1CCC(C)C | -0.8 | -0.11
Clc1ccc(N2Cc3ccccc3C2)cc1Cl | 0.7 | 0.78
COc1ccc(/C=N/NC(=O)c2ccccc2NC(=O)c2cccs2)cc1 | . | 2.4
CCN(CCO)c1ccc(NC(=S)Nc2ccc(OC)cc2)cc1 | -0.45 | .
Cc1ccc(C)c(S(=O)(=O)N2CC3(C)CC2CC(C)(C)C3)c1 (centres undefined) | -0.4 | .
COC(=O)COc1ccc2c3c(c(=O)oc2c1)CCCC3 | . | 41
CCOC(=O)C1CCCN(C(=O)c2sc3ncnc(N4CCN(c5ccccc5)CC4)c3c2C)C1 (centres undefined) | . | 0.15
O=C(Nc1ccccc1C(=O)c1ccccc1)c1ccc(Cl)cc1 | . | -1
Cc1cc(N2C(=O)CCC2=O)n(-c2ccccc2)n1 | -1.2 | .
O=C(COC(=O)C1CCC1)Nc1ccc(F)c(Cl)c1 | -0.55 | .
Cc1ccc(C)c(NC(=O)CC(Cc2ccccc2)C(=O)O)c1 (centres undefined) | -0.4 | -0.42
Cc1[nH]c2ccc(C(=O)NCCN3CCCCCC3)cc2c1C | -0.35 | 0.29
O=C(COn1nnc2ccccc21)NCC1CCCCC1 | 0.7 | .
O=C(c1ccc(Cl)cc1)c1c[nH]c(C(=O)NNc2cccc(Cl)n2)c1 | . | -0.47
Cc1cc(C)nc(NS(=O)(=O)c2ccc(N3C(=O)c4ccccc4C3=O)cc2)n1 | . | -0.36
CC(=O)OC1CCS(=O)(=O)C1 (centres undefined) | -0.1 | -0.43
CCOC(=O)c1nc(C)sc1-c1ccnn1C(=O)c1ccc(OC)cc1 | -0.65 | 5.9
COc1cccc(-c2nn(CN3CCCC3)c(=S)n2C)c1 | -0.7 | 0.27
CS(=O)(=O)c1ccc(F)c(NC(=O)Nc2ccc(Cl)cc2)c1 | . | -0.55
c1cc2c(cc1N1CCNCC1)OCCO2 | -0.65 | .
Cc1ccc2nc(SCc3cccc(C(F)(F)F)c3)nc(=O)n2c1 | . | 35
CCNc1cc2oc(=O)cc(C(F)(F)F)c2cc1C | -0.25 | 0.43
CS(=O)(=O)c1ccc(CC(=O)N2CCc3ccccc3C2)cc1 | . | -0.41
Cc1ccc(CCOC(=O)NC(C(=O)OCc2ccc([N+](=O)[O-])cc2)C(C)C)cc1 (centres undefined) | . | 0
O=C(Oc1ccc(C(=S)N2CCCCC2)cc1)c1ccccc1 | -0.2 | 10
CS(=O)(=O)Nc1cccc(C(=O)OCC(=O)Nc2ccccc2F)c1 | 0.4 | .
O=C(Nc1ccc(Cl)cc1)OCc1noc(-c2cccs2)n1 | -1.4 | 0.14
O=C(NCc1ccccn1)NCc1noc2ccccc12 | -0.65 | 0.39
CC1CN(C(=O)CCC2CCCCC2)CC(C)O1 (centres undefined) | -0.25 | 0.39
CCc1ccc(NS(=O)(=O)c2ccc3[nH]c(=O)ccc3c2)cc1 | 1.2 | 0.96
Cc1c(C(=O)c2ccc(Cl)c(Cl)c2)oc2ccc(Br)cc12 | . | 0.085
O=C(NC1=NCCS1)c1ccccn1 | -1.6 | 0.27
C=C(C)[C@H]1CC=C(C(=O)O)CC1 | -0.15 | 0.01
CC(=O)Nc1nc2sc(C)c(C)c2c(=O)s1 | -0.25 | 0.24

Some of the compounds tested; count on the stated rates, not on these rows.
